# gsp antagonist: qHTS for Antagonists of gsp, the Etiologic Mutation Responsible for Fibrous Dysplasia/McCune-Albright Syndrome: qHTS; AID 624288, 2012; Potency, µM (doses to about 76.9 µM), without a hit: top-dose activity change, negative = inhibition, hits mostly inhibitors; actives 0.4% (n = 340,000); gsp-mutant cells, cAMP HTRF, 30 min; control for the full effect not named in the record; active = falling curve of any shape with a large fitted effect; inconclusive = falling curve, mostly with a smaller effect; inactive = flat or rising curve; cell line not stated here;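 also: intracellular cAMP measured with PDE inhibitor Ro 20-1724 present during compound exposure; potency is read from the fitted curve at half-maximal effect; % is scaled to controls: 0 for no effect and ±100 for the full control effect; nearly all actives have a fitted effect of over 65% in size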
#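 Cells, 2000/well, grown 16–24 h in DMEM 10% FBS with 0.5 mg/ml G418, then compounds plus […] (300 uM addition stock), 30 min at 37C. cAMP read by HTRF (cAMP-d2 and anti-cAMP antibody-K in lysis buffer) after 30 min RT.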
# gsp agonist: qHTS for Agonist of gsp, the Etiologic Mutation Responsible for Fibrous Dysplasia/McCune-Albright Syndrome: qHTS; gsp mutant cells, cAMP HTRF, 30 min; control for the full effect not named in the record; Potency, µM (titrated, usually from 76.9 µM), for the others: top-dose activation (cAMP increase), hits mostly activators; actives 0.13% (n = 340,000); AID 624287, 2012; active = well fitted activation curve with a large enough effect; inconclusive = small, poorly fitted or top-dose-only effect, or another doubt; inactive = no such curve, though single readings can be large or run the other way; cell line not stated here;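 also: phosphodiesterase inhibitor Ro 20-1724 added with compounds to block cAMP breakdown; potency is read from the fitted curve at half-maximal effect; nearly all actives have a fitted effect of over 60% in size; about a fifth of the inactives were tested at one dose only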
#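 Cells stably selected in G418 were plated at 2000/well, grown 16-24 hr, then given compounds in DMSO with the PDE inhibitor […] (300 uM solution added) for 30 min at 37C; cAMP was read by HTRF.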
# Menin MLL FP FL: qHTS Assay for Inhibitors Targeting the Menin-MLL Interaction in MLL Related Leukemias: Competition With Fluorescein Labeled MLL-derived Peptide. Fluorescence polarization, fluorescein-MLL peptide displacement from menin. FP activity change, % at 61.4 µM. 290,000 tested, under 10 active; inconclusive = falling polarisation curve, or a change in total fluorescence; inactive = total fluorescence flat and polarisation flat or rising; no compound was filed as active; the % refers to the polarisation; negative = inhibition;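 also: % of control where 0% means no effect; inhibitors lower the polarisation; unlabelled MLL peptide was the positive control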
# ClpP mod: qHTS Assay for Activators of ClpP. actives 1.9% (n = 340,000). Potency, µM (titrated, usually from 57.5 µM), without a hit: at the highest dose activity change, negative = active. purified B. subtilis ClpP, FRET peptide cleavage, 20 min. AID 651965, 2013. ATP-dependent Clp protease proteolytic subunit (Bacillus subtilis (strain 168)), P80244; active = well fitted falling curve with a large enough effect; inconclusive = small, poorly fitted or top-dose-only effect; inactive = no such curve, though single readings can be large or run the other way; also: potency is read from the fitted curve at half-maximal effect; the source files actives as falling curves though it sought activators and does not explain the sign; nearly all actives have a fitted effect of over 65% in size; many hits overshoot -100%
# Target sequence (P80244 whole entry, looked up): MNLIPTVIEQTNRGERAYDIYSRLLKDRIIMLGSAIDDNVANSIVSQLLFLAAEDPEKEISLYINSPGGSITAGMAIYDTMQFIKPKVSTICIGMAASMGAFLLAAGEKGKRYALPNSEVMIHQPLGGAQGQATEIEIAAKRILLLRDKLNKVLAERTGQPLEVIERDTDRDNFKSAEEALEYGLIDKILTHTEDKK
#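 Buffer: 100 mM Tris/HCl pH8, 100 mM KCl, 0.05% low protease BSA, 2.5% glycerol, 0.01% Tween-20. ClpP 10 microg/mL final; 20 min RT; delta FRET normalized to ADEP and DMSO controls.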
# PINK1 modulator: A Quantitative High throughput Screen to Identify Chemical Modulators of PINK1 Expression. PINK1 immunofluorescence, high-content cytometry, 24 h. Potency, µM (highest dose often 76.6 µM), inactives show at the highest dose activation (PINK1 increase), actives largely listed as activators. actives 0.2% (n = 410,000). AID 624263, 2012; active = well fitted activation curve with a large enough effect; inconclusive = small, poorly fitted or top-dose-only effect; inactive = flat fitted curve, though single readings scatter; cell line not stated here;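 also: potency is read from the fitted curve at half-maximal effect; % of control where 0% means no effect; nearly all actives have a fitted effect of over 65% in size; a mitochondrial uncoupler was the plate control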
#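 PINK1 protein level read as immunofluorescence by microplate cytometer in a fixed, stained stable cell line after 24 h exposure to five compound concentrations, with CCCP as control.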
# D2 ag: Beta-Arrestin HTS for Positive Allosteric Modulators of the Human D2 Dopamine Receptor: Agonists | D(2) dopamine receptor (Homo sapiens), P14416 | DiscoveRx PathHunter D2 beta-arrestin, luminescence, 90 min; 100% = 57 uM dopamine signal | activation, % (no concentration beside the values) | actives 0.084% (n = 360,000) | AID 624465, 2012; in the data active = activation above about 40%; inconclusive = about 15% to 40%; inactive = below about 15%; also: compound concentration not given in the record; the text of the record calls up to 30% inactive
# Target sequence (P14416 whole entry, looked up): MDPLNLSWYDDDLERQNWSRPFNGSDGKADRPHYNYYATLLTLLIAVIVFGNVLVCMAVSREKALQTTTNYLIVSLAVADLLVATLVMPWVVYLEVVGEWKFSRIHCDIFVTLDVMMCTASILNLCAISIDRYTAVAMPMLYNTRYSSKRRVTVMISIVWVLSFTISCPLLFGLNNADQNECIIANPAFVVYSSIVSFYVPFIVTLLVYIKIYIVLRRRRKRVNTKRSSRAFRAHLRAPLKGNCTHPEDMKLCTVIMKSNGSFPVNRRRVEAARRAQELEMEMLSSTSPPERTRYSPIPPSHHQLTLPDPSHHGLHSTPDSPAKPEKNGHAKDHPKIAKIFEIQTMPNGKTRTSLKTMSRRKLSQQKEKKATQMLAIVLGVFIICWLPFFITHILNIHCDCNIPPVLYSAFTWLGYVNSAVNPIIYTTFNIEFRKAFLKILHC
#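 DiscoveRx PathHunter D2 beta-arrestin cells (2,100/well) attached overnight, then compound-stimulated 90 min at 37 C in HBSS/10 mM HEPES/0.1% Tween-20 buffer; beta-galactosidase complementation read by luminescence after 1 h at ambient temperature. Dopamine 57 uM final (EC100) as control.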
# Sfp inh: qHTS Assay for Inhibitors of Bacillus subtilis Sfp phosphopantetheinyl transferase (PPTase). Potency, µM, without a hit: max response, negative = inhibition, most hits filed as inhibitors. AID 1490, 2009. 4'-phosphopantetheinyl transferase ffp (Bacillus subtilis), Q9F4F7. Biochemical Sfp PPTase activity, qHTS. actives 3.5% (n = 310,000); active = well fitted inhibition curve with a large enough effect; inconclusive = small, poorly fitted or top-dose-only effect, or another doubt; inactive = no such curve, though single readings can be large or run the other way;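 also: the enzyme is Sfp with the accession as filed and its product quenches rhodamine fluorescence; potency is read from the fitted curve at half-maximal effect; 0% = enzyme reaction without inhibitor and -100% = no enzyme wells; top concentration of the series not given in the record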
#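 Buffer: 50 mM Hepes-Na pH 7.6, 10 mM MgCl2, 0.01% Nonidet P-40, 0.01% BSA. Enzyme 15 nM, pre-exposed to compound 15 min; substrates then added and fluorescence change tracked over 30 min.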
# The depositor's hits bear a star; u = inconclusive; x = no result given; [ ] = another dose, or the depositor's remark. Rows are unselected. About 5.1% of those tested had a hit in this group.
SMILES,gsp antagonist,gsp agonist,Menin MLL FP FL,ClpP mod,PINK1 modulator,D2 ag,Sfp inh
CCCC(=O)N(Cc1cc(=O)[nH]c2ccccc12)c1ccc(C)cc1,-5.7%,-14.7%[15.4 µM],-0.1,0.7%,-0.4%,-2.7,-8.7%
COc1ccc(Cl)cc1S(=O)(=O)N1CCCC(C(=O)NCc2ccccn2)C1 (configuration not stated),0.4%,-4.7%[15.4 µM],x,x,1.9%,-3.1,x
Cn1c(N)c(C(=O)CSc2nc3ccccc3c(=O)n2CCCN2CCOCC2)c(=O)n(C)c1=O,7.9%,11.2%,1.1,-0.3%,0.9%,-3.5,10.0%
Cc1nc(-c2cccc(C(F)(F)F)c2)sc1C(=O)O,-22.0%,12.9%[15.4 µM],-0.7,x,-0.9%,-1.0,12.6%
CC(Sc1nnnn1-c1ccccc1)C(=O)Nc1ccc(N2CCN(C)CC2)cc1 (configuration not stated),-2.4%,u,-7.1,x,-0.1%,3.6,-2.7%
COc1cc2c(C)nc(C)c(C#N)c2cc1OC,18.2%,41.4%,2.7,u,0.8%,0.5,5.7%
CCCCc1ccc(NC(=O)Nc2cc(C)nn2C)cc1,0.9%,19.3%[15.4 µM],-7.9,-1.4%,4.4%,-2.0,5.7%
CCc1ccc(C(=O)Nc2cc(S(=O)(=O)N3CCOCC3)ccc2N2CCOCC2)cc1,-6.0%,1.2%,x,-0.9%,0.4%,3.7,x
Cc1ccc(C)c(NC(=O)c2cc(S(=O)(=O)N3CCCCC3)c[nH]2)c1,5.0%,u,-1.2,0.6%,0.4%,3.9,-4.5%
Cc1nc(-c2ccc(F)cc2)c(CC(=O)N(C)CC(=O)Nc2cccc(F)c2)s1,x,-61.9%[inhibitor],x,-2.1%,2.5%,2.7,x
N#CC1=C(SCC(=O)Nc2nccs2)NC(=O)CC1c1ccccc1 (configuration not stated),-19.8%,-6.6%,1.4,14.2%,u,1.1,10.4%
CCN(CC)c1ccc(NC(=O)CSc2nc3ccccc3c(=O)[nH]2)cc1,-3.6%,0.0%,-1.4,0.8%,-0.8%,-15.3,18.0%
O=C(NCC(c1cccs1)N1CCOCC1)C1CCN(S(=O)(=O)c2cccc(C(F)(F)F)c2)CC1 (configuration not stated),6.1%,12.7%,x,-5.1%,5.2%,2.3,x
OCCC1CN(Cc2ccccc2-c2ccco2)CCN1Cc1ccccc1 (configuration not stated),3.7%,14.4%,0.7,x,5.8%,-0.9,5.5%
Cc1ccc(NCc2ccccc2O)c(C)c1,-7.1%,17.1%[15.4 µM],3.5,x,15.3%,-3.8,10.3%
CCOC(=O)CCN(c1ccccc1)S(=O)(=O)c1ccc(-c2ccc(=O)[nH]n2)s1,-12.4%,-6.3%,0.2,-0.7%,2.1%,2.6,8.8%
O=C1SC(SCc2ccccc2)=N/C1=C\c1ccco1,-7.1%,2.4%,u,-0.6%,u,-2.1,-21.0%
CCN(CC(=O)NCc1ccc(Cl)cc1)C(=O)c1oc2ccccc2c1C,-9.8%,-8.0%,-4.6,x,0.1%,3.8,6.9%
COc1ccc(CCNC(=O)c2cc(S(=O)(=O)N(C)c3ccccc3)ccc2Cl)cc1,-24.0%,-7.4%,x,1.2%,1.7%,-1.8,18.6%
CCCN(C1CCS(=O)(=O)C1)S(=O)(=O)c1cc(OC)ccc1OC (configuration not stated),9.0%,-38.6%[inhibitor],x,-2.8%,-1.4%,0.1,x

# Part of the list above, reformatted:
SMILES | gsp antagonist | gsp agonist | Menin MLL FP FL | ClpP mod | PINK1 modulator | D2 ag | Sfp inh
Cc1ccc(NCc2ccccc2O)c(C)c1 | -7.1% | 17.1%[15.4 µM] | 3.5 | x | 15.3% | -3.8 | 10.3%
CCOC(=O)CCN(c1ccccc1)S(=O)(=O)c1ccc(-c2ccc(=O)[nH]n2)s1 | -12.4% | -6.3% | 0.2 | -0.7% | 2.1% | 2.6 | 8.8%

# More compounds follow.
SMILES,gsp antagonist,gsp agonist,Menin MLL FP FL,ClpP mod,PINK1 modulator,D2 ag,Sfp inh
COc1ccc(NC(=O)CSc2nnc3ccc(-c4cccnc4)nn23)c(OC)c1,8.0%,-9.7%,x,0.3%,3.0%,0.1,x
COc1ccc(N(C(=O)c2ccc(Br)o2)C2C=CS(=O)(=O)C2)cc1 (configuration not stated),3.4%,-33.0%[inhibitor],-1.1,0.7%,3.5%[38.3 µM],-0.7,17.2%
CC(=O)Nc1ccc(S(=O)(=O)Nc2ccc(N3CCOCC3)cc2)cc1,2.8%,-3.5%,3.9,-0.3%,1.6%,0.8,13.0%
COc1ccccc1C(=O)NC(=S)/C=C1/N(C)c2ccccc2C1(C)C,u,2.1%,1.3,-1.7%,4.9%,-7.1,u
COc1ncc(-c2ccc3c(c2)S(=O)(=O)c2cccc(C(=O)O)c2C3=O)cn1,4.2%,20.1%,x,-2.9%,2.0%,-5.1,x
CCCC1OC(c2cc3c(cc2Cl)OCO3)OCC1CC (configuration not stated),-0.7%,-7.5%,x,x,9.1%,0.9,x
Cc1nn(-c2ccccn2)c(N)c1N=O,u,-2.3%,1.0,x,0.2%,4.7,4.5%
CCOC(=O)/C(C#N)=C/c1c(N2CCN(Cc3ccc4c(c3)OCO4)CC2)nc2c(C)cccn2c1=O,-14.3%,-1.8%,-0.7,x,-0.5%,-1.3,9.4%
Cc1ccccc1C(=O)NC(CC(C)C)C(=O)OCc1cc(=O)n2cc(Br)ccc2n1 (configuration not stated),-3.2%,26.9%,3.9,-24.1%,0.6%,0.5,-11.6%
Cc1ccc(S(=O)(=O)NC2=NCN(Cc3cccnc3)CN2)cc1,7.9%,-0.4%,0.0,-1.9%,0.1%[38.3 µM],-1.4,8.1%
CC(=O)Nc1ccc(NC(=O)Cc2ccc(-c3ccccc3)cc2)cc1,6.4%,u,-1.5,-0.2%,-0.1%,-2.3,2.8%
CCC1CCCCN1C(=S)NC(=O)c1ccc(F)c(S(=O)(=O)N2CCOCC2)c1 (configuration not stated),-6.0%,-8.4%,0.5,0.2%,-0.6%,2.6,-16.4%
Clc1ccccc1CSC1=NCCCN1,-4.2%,5.8%,7.3,-1.6%,-2.5%,-3.4,3.1%
Cc1ccc(C(=O)OC/C(O)=C(\C#N)c2nc3ccccc3[nH]2)cc1S(=O)(=O)N1CCOCC1,-14.2%,-11.0%,u,0.4%,0.3%,0.1,10.7%
Clc1cccc(-c2nc3ccc(Cl)cn3c2Cc2ccsc2)c1,x,x,x,-1.0%,5.4%,-1.1,x
C/C(CCc1ccc2c(c1)OCO2)=N\NC(=O)c1ccccc1,15.6%,-2.6%[15.4 µM],2.2,x,2.4%,-4.5,1.2%
Cc1cccc(NS(=O)(=O)c2cccc(C(=O)NCC(c3ccco3)N3CCCCC3)c2)c1 (configuration not stated),-3.6%,3.5%[15.4 µM],x,3.16µM*,-0.4%,-3.7,x
COc1ccc(N2CCN(CC(=O)Nc3ccccc3C(=O)NC(C)c3ccccc3)CC2)cc1 (configuration not stated),x,2.4%,x,-0.1%,-1.3%,2.3,x
COc1cccc(CNC(=O)Cc2ccc(S(=O)(=O)N3CCOCC3)s2)c1,-1.6%,-55.3%[inhibitor],x,-20.0%,0.7%,-1.2,x
Cc1c(C(=O)Nc2ccncc2)oc2c1C(=O)CC(C)(C)C2,-13.6%,-2.1%,3.3,-3.6%,-1.4%[38.3 µM],1.4,16.1%
CON(C)C(=O)CCN(Cc1ccccc1)C(=O)OC(C)(C)C,3.8%,-24.2%,x,1.7%,-0.1%,-3.3,x
CN(C)CC(CCCCC(CN(C)C)C(=O)c1ccccc1)C(=O)c1ccccc1 (configuration not stated),14.9%,-16.0%,-2.9,0.4%,16.2%,-2.6,16.0%
CC1(C)Cc2cccc(OCC(=O)N3CCN(c4ccc(F)cc4)CC3)c2O1,-4.9%,18.3%,x,1.5%,-4.8%,0.5,x
Cc1cc(N2CCN(C)CC2)nc2ccc(NC(=O)CCC(=O)N3CCN(c4ccc([N+](=O)[O-])cc4)CC3)cc12,-10.1%,u,-0.1,x,2.8%,5.1,2.6%
O=C(C[n+]1ccccc1)Nc1ccc(Oc2ccccc2)cc1,5.2%,-14.2%,-1.1,0.3%,-1.1%,-3.4,0.8%
Cc1oc(-c2ccccc2)nc1CS(=O)CC(=O)NC1CCCCCC1 (configuration not stated),12.4%,3.1%,x,-10.3%,1.6%,-1.6,-17.1%
Cc1cc(C(=O)NN=C(CCC(=O)O)c2cccs2)c(C)o1,3.4%,18.1%[15.4 µM],x,-2.1%,-0.7%,-4.9,x
CCN(CC(=O)Nc1ccc(C(=O)Nc2ccc(OC)cc2)cc1)Cc1nc2ccccc2c(=O)[nH]1,-10.7%,4.9%,11.4,12.5%,4.9%,-4.9,-28.1%
Cc1nc2ccccn2c(=O)c1NC(=O)c1ccco1,x,-54.6%[inhibitor],x,-4.7%,3.1%,-2.6,x
CCOc1ccc(NC(=O)COc2ccc(C(=O)NC3CCCc4ccccc43)cc2OC)cc1 (configuration not stated),4.3%,6.5%,3.0,-7.7%,26.6%,-1.2,7.2%
CCOc1ccc(S(=O)(=O)N2CCN(S(=O)(=O)c3ccc(C)c(C)c3)CC2)cc1,4.2%,-1.2%,-4.8,x,6.6%,-1.9,11.1%
O=C(COC(=O)c1ccccc1Nc1ccccc1F)c1ccccc1,-18.1%,-32.6%[15.4 µM],-0.3,x,4.5%,-1.0,8.5%
CCCCOC(=O)c1ccc(NC(=O)/C=C/c2cccs2)cc1,-10.8%,-1.2%,-1.5,-4.7%,21.8%,2.1,u
Cc1noc(C)c1C(=O)Nc1nc2ccc(Cl)cc2s1,u,-0.8%,x,-6.7%,u,-3.1,14.4%
